Source: PubChem
D2 ag: activates the human D2 dopamine receptor; 360,000 compounds, 0.084% hits; DiscoveRx PathHunter D2 beta-arrestin, luminescence, 90 min; 100% = 57 uM dopamine signal; P14416; activation, % (test concentration not listed); in the data active = activation above about 40%; inconclusive = about 15% to 40%; inactive = below about 15%; also: compound concentration not given in the record; the text of the record calls up to 30% inactive
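Agonist mode: compounds alone added to overnight-plated D2 PathHunter cells for 90 min at 37 C, with 57 uM final dopamine (EC100) defining full response. Beta-arrestin recruitment detected by chemiluminescent reagent, read after 1 h at ambient temperature.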
Six1-Eya2 inh: Six1/Eya2 interaction inhibition. Q15475+O00167. AlphaScreen GST-Six1/His-Eya2 binding, biochemical; active compounds read low; control for the full effect not named in the record. activity change, % (no concentration beside the values). 360,000 compounds, 0.56% hits. AID 651725; in the data active = activity change below about -65%; inconclusive = about -30% to -65%; inactive = above about -30%; also: % is scaled to controls: 0 for no effect and ±100 for the full control effect
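AlphaScreen luminescence read after one hour at 37 °C in darkness. Pin-transferred compounds met GST-Six1 and His-Eya2 protein (5X stock 250 nM/500 nM) plus glutathione donor and Ni-chelate acceptor beads (5X, 50 ug/mL).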
CtBP-E1A blk: CtBP/E1A binding inhibition; AlphaScreen GST-E1A/His-CtBP binding, 1536-well; active compounds read low; control for the full effect not named in the record; activity change, % (concentration not given with the values); 340,000 compounds, 0.49% hits; AID 651724; in the data active means activity change below about -65%; inconclusive means about -30% to -65%; inactive means above about -30%; also: % is scaled to controls: 0 for no effect and ±100 for the full control effect
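Steps: dispense buffer (Tris pH 8.0, NaCl 300 mM, TCEP 1 mM, BSA, Tween 20); add 5X protein mix (GST-E1A, His-CtBP, 125 nM each); pin 23 nL compound; 2 h at 37 °C, dark; add 5X beads (50 ug/mL); 1 h; read.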
Sfp PPTase inh: inhibitors of Bacillus subtilis Sfp phosphopantetheinyl transferase; Q9F4F7; Biochemical Sfp PPTase activity, qHTS; Potency, µM, for inactives: max response, negative = inhibition, usual class: inhibitors; 310,000 compounds, 3.5% hits; active = well fitted inhibition curve with a large enough effect; inconclusive = small, poorly fitted or top-dose-only effect, or another doubt; inactive = no such curve, though single readings can be large or run the other way;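 also: the enzyme is Sfp with the accession as filed and its product quenches rhodamine fluorescence; potency is read from the fitted curve at half-maximal effect; 0% = enzyme reaction without inhibitor and -100% = no enzyme wells; top concentration of the series not given in the record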
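Reaction rates are the 30-min fluorescence difference (ex 525, em 598 nm) in wells containing 15 nM Sfp, 5 uM rhodamine-CoA and 12.5 uM BHQ-2-YbbR at pH 7.6 with 10 mM MgCl2.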
D2 potentiator: potentiates the human D2 dopamine receptor allosterically | DiscoveRx D2 beta-arrestin cells, luminescence, 90 min; 100% = 57 uM dopamine signal | potentiation, % (concentration not given with the values) | 360,000 compounds, 0.23% hits | AID 624464; active = potentiation of 50% or more; inconclusive = 30% to 50%; inactive = 30% or less;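 also: tested on top of an EC20 dose of dopamine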
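D2 cells co-treated with compound plus 50 nM dopamine (EC20) for 90 min at 37 deg C to detect potentiation. Beta-arrestin recruitment was read as enzyme-fragment luminescence after 1 h at ambient temperature. Full response was set by 57 uM dopamine.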
PINK1 modulator: PINK1 expression modulation. PINK1 immunofluorescence, high-content cytometry, 24 h. Potency, µM (doses to about 76.6 µM), for the others: at the top dose activation (PINK1 increase), hits mostly activators. 410,000 compounds, 0.2% hits; active = well fitted activation curve with a large enough effect; inconclusive = small, poorly fitted or top-dose-only effect; inactive = flat fitted curve, though single readings scatter; cell line not stated here;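 also: potency is read from the fitted curve at half-maximal effect; % of control where 0% means no effect; nearly all actives have a fitted effect of over 65% in size; a mitochondrial uncoupler was the plate control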
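A stable cell line was treated with compounds at 5 concentrations for 24 hours, with CCCP as control. PINK1 levels and mitochondrial localization were measured by immunofluorescence with mitochondrial, cell and nuclear markers after fixation, read by laser-scanning cytometry.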
TRPV1 potentiator: human TRPV1 potentiation; Q8NER1; potentiation, % at 8.33 µM; 320,000 compounds, 0.02% hits; TRPV1-expressing cells, Fluo-8 calcium influx, capsaicin EC20 potentiation; host cell line not named in the record; control for the full effect not named in the record; active means potentiation above 80%; inconclusive means 30% to 80%; inactive means below 30%; also: 0% is about no effect
Target sequence (Q8NER1 whole entry, looked up): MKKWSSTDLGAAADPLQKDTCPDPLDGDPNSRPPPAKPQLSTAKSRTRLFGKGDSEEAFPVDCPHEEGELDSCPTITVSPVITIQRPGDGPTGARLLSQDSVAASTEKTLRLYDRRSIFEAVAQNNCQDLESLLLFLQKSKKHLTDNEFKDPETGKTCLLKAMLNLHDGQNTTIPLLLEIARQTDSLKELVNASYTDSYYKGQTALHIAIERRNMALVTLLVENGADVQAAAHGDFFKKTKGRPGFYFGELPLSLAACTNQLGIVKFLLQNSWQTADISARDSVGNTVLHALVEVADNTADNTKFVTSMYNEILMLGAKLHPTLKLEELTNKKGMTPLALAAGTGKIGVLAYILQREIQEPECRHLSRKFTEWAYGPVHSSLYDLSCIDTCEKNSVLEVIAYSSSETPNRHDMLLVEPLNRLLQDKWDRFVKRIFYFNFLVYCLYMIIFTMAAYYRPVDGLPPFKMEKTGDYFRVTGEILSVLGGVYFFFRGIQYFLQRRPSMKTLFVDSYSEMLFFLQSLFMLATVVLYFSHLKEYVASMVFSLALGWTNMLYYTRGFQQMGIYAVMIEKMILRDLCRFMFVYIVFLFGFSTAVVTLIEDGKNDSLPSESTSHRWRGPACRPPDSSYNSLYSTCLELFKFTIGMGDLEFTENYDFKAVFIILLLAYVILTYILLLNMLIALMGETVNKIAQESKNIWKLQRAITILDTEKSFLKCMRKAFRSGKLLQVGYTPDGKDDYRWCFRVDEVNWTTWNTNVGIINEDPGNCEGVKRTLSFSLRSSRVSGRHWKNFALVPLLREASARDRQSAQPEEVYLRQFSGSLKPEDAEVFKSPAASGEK
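TRPV1-expressing cells were cultured overnight at 35.5C and loaded with Fluo-8 calcium dye for 40 to 90 min at room temperature. After a 10 s baseline, compound was added and calcium influx was read kinetically for 3 min (ex 480/em 520 nm).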
* hit, by the source's call; ? = inconclusive; . = not tested or not shown; & = joins results of further samples; [ ] = another dose, or the depositor's remark.

SMILES	D2 ag	Six1-Eya2 inh	CtBP-E1A blk	Sfp PPTase inh	D2 potentiator	PINK1 modulator	TRPV1 potentiator
O=C(CCC(=O)c1ccc(Cl)cc1)OCc1nc2ccsc2c(=O)[nH]1	-0.2	-11	5	.	0	6.3%	14
CN1CCN(c2ccccc2NC(=O)c2cccs2)CC1	-2.2	-1	4	11%	-16	0.4%	-10
COc1ccccc1CNC(=O)C(CCSC)NC(=O)C1CCC(C)CC1 (stereo not given)	-2.2	-2	1	23%	-9	-0.6%	-1
COc1ccc(CCN2C(=NC(=O)C(C)C)SC3CS(=O)(=O)CC32)cc1 (stereo not given)	-1.2	2	0	18%	-5	-2.2%	-4
COc1ccccc1-c1c(-c2ccc(O)cc2O)n[nH]c1C(F)(F)F	2.4	1	-1	11%	0	1.2%	3
O=C(O)/C=C/C(=O)c1ccc2c(c1)NC(=O)CO2	-4.5	?	-2	8.9µM*	0	3.6%	-9
CC(C)C[C@@H](CN=[N+]=[N-])N1CCN(C)CCC1=O	-0.4	-4	3	22%	-9	1.3%	-4
O=C(Nc1ccc(O)cc1)C1CCCO1 (stereo not given)	-1.0	4	2	13%	3	0.0%[38.3 µM]	-4
O=C(Cc1ccccc1)N/N=C/c1cccs1	-1.8	4	2	2%	-8	0.3%	13
CCOc1cc(/C=N/NC(=O)Cn2nc([N+](=O)[O-])cc2C)cc(Br)c1OCc1ccccc1F	-0.3	26	44	-15%	21	18%[38.3 µM]	14
Cc1ccc(-c2ccc(SCC(=O)NC3CCCC3)nn2)cc1	-3.4	1	0	-6%	-2	2.3%	-1
O=C(COc1ccc(Cl)cc1)N(Cc1ccccc1)c1nc(-c2ccccc2)cs1	1.5	-4	-7	7%	-6	4.9%	-18
O=C(NC(=O)N1CCCCC1)c1ccccc1	-4.7	9	7	24%	-3	0.0%	24
CCCCN(C)c1nc(-c2ccco2)c2c(c1C#N)CC(C)(C)OC2	-4.3	47	0	35µM*	-13	22%	.
COc1ccc(NC2=C(NC(C)=O)C(=O)c3ccccc3C2=O)cc1	-3.1	-9	-12	1%	8	0.6%	-6
O=C(O)CCC(=O)Nc1ccc(NC(=O)c2ccc(Cl)cc2Cl)c(Cl)c1	0.1	-2	.	5%	-4	1.4%	11
CC(=O)c1ccc(N2CCN(C(=O)COc3ccc(F)cc3)CC2)c(F)c1	-1.0	-6	-3	16%	-3	2.0%	-16
CCOc1cc(/C=C2/C(=O)N(c3ccccc3)N=C2C)ccc1OC(=O)c1ccco1	-1.0	-3	1	?	-16	5.5%	5
COCCN(Cc1ccco1)C(=O)Cn1ncc2c(=O)oc3ccccc3c21	-0.7	16	11	?	-5	1.8%	24
CC1CCCN(Cc2nc3c(c(=O)n(C)c(=O)n3C)n2CC(N)=O)C1 (stereo not given)	2.1	4	-1	0%	3	4.3%[38.3 µM]	-2
CC1CC(C)CN(CC(O)COCc2ccccc2)C1 (stereo not given)	2.4	1	1	18%	-7	0.7%	13
c1ccc(CN2CCN(c3nc(-c4ccccn4)nc4ccccc34)CC2)cc1	-2.5	7	-1	-17%	-12	-1.6%	-11
COc1ccc(-c2nsc3c(N4CCN(S(=O)(=O)c5ccccc5F)CC4)ncnc23)cc1	-3.1	-1	-8	15%	-2	.	-6
COC(=O)c1nnn(-c2nonc2N)c1CSc1nc2ccccc2s1	-4.9	-8	1	3%	1	4.8%	0
COc1ccc(C2C(C#N)=C(N)Oc3cc(O)ccc32)cc1Cl (stereo not given)	-0.7	-1	.	11%	10	3.5%	5

Later entries:
SMILES	D2 ag	Six1-Eya2 inh	CtBP-E1A blk	Sfp PPTase inh	D2 potentiator	PINK1 modulator	TRPV1 potentiator
COc1ccc(CC(=O)Nc2cccc3ccccc23)cc1OC	-1.3	11	1	10%	-2	-1.7%	-7
NC(=O)C1CCN(CC(=O)Nc2cccc(C(=O)Nc3cccc(C(F)(F)F)c3)c2)CC1	-1.3	1	-1	0%	-3	-1.0%	7
COc1ccc(C(=O)COc2nc(C)cc(C)c2C#N)cc1	-3.6	2	6	5%	-4	0.3%[38.3 µM]	-43
COc1ccc(NC(=S)Nc2ccc3nccnc3c2)cc1	1.5	-7	1	45µM*	12	-2.2%	22
COc1ccc(N2CCN(c3ncnc4scc(-c5ccc(C)cc5)c34)CC2)cc1	0.4	?	-22	14%	-7	1.0%	-8
O=C1N(CCCCN2C(=O)C3(OCCO3)c3ccccc32)c2ccccc2C12OCCO2	-3.0	7	0	9%	1	-1.6%	6
O=S(=O)(/C=C/c1ccccc1)n1cnc2ccccc21	0.0	12	5	8%	4	1.0%	-2
CCCc1[nH]n(-c2nc3ccccc3s2)c(=O)c1C=NCCCOC	-4.5	3	-3	9%	-4	0.2%	-2
O=C(O)CCN1C(=O)C2C3c4ccccc4C(c4ccccc43)C2C1=O (stereo not given)	-1.7	1	5	17%	5	-0.2%	2
O=C(O)c1cc(NS(=O)(=O)c2ccc(N3CCCCC3)c([N+](=O)[O-])c2)cc(C(=O)O)c1	-6.6	2	1	25%	-28	-2.2%	7
COc1ccc(N2CCN(C(=O)c3cn(C)c(=O)c4c3c3ccccc3n4C)CC2)cc1	-2.7	-21	-18	-15%	-7	-2.2%[38.3 µM]	?
COc1cc(NC(=O)c2ccc3c(SCC(=O)O)c4c(nc3c2)CCC4)cc(OC)c1OC	-1.7	2	-6	10%	-10	-1.0%	0
Cc1cc(C)c(C)c(S(=O)(=O)N2CCC(C(=O)NCc3ccco3)CC2)c1C	-0.7	-6	2	.	-1	0.0%	0
C=CCNS(=O)(=O)c1cc(S(=O)(=O)NCC=C)c(OC)cc1OC	0.2	7	.	16%	-2	1.8%	28
CC(=O)Nc1ccc(C(=O)OCC(=O)Nc2ccc(N3CCOCC3)cc2)cc1	-2.2	-3	-1	15%	3	3.0%	18
O=C(N=NC(=O)c1ccc2c(O)n(C3CCCCC3)c(O)c2c1)c1cccnc1	-4.8	-2	5	3%	-8	2.8%[38.3 µM]	-9
O=C(O)CSc1nc2ccccc2[nH]1	-3.5	-2	9	12%	-9	-3.0%	5
Cc1cc(NC(=O)CS(=O)(=O)c2ccc(Cl)cc2)no1	-1.9	-2	.	9%	-7	1.5%	6
CCOC(=O)CSc1nc2ccccc2c(=O)n1CC1CCCC1	-1.7	33	21	-19%	-4	3.7%	-14
O=C(NN=C1CCCC1)c1ccc(O)cc1	-3.9	-3	10	5%	-3	1.0%	-13
CC(C)NS(=O)(=O)c1ccc(OCC(=O)NCc2ccc3c(c2)OCO3)c(Cl)c1	-3.7	1	4	4%	-11	0.2%	6
COc1cccc(-n2c(=S)sc3c(=O)n(-c4ccccc4OC)c(=S)[nH]c32)c1	10	-13	-23	20%	0	0.6%	10
O=C(O)c1nccnc1C(=O)NCCc1c[nH]c2ccccc12	-3.8	5	.	-16%	-12	0.9%	6
COC(=O)c1ccc(CNC(=O)[C@@H]2CCCN2S(=O)(=O)c2ccccc2F)cc1	-0.8	4	-11	.	-1	1.0%	.
Cc1c(NC(=O)c2cc(-c3cccc(Cl)c3)on2)c(=O)n(-c2ccccc2)n1C	-4.0	-5	-12	4%	-8	2.1%&2.4%	1

One compound at a time (already shown). Screens in order: D2 ag, Six1-Eya2 inh, CtBP-E1A blk, Sfp PPTase inh, D2 potentiator, PINK1 modulator, TRPV1 potentiator
Entry for CCOC(=O)CSc1nc2ccccc2c(=O)n1CC1CCCC1 → -1.7, 33, 21, -19%, -4, 3.7%, -14
Entry for O=C(N=NC(=O)c1ccc2c(O)n(C3CCCCC3)c(O)c2c1)c1cccnc1 → -4.8, -2, 5, 3%, -8, 2.8%[38.3 µM], -9
Entry for COc1ccc(C2C(C#N)=C(N)Oc3cc(O)ccc32)cc1Cl (stereo not given) → -0.7, -1, ., 11%, 10, 3.5%, 5
Entry for CC1CCCN(Cc2nc3c(c(=O)n(C)c(=O)n3C)n2CC(N)=O)C1 (stereo not given) → 2.1, 4, -1, 0%, 3, 4.3%[38.3 µM], -2

(list continues)
SMILES	D2 ag	Six1-Eya2 inh	CtBP-E1A blk	Sfp PPTase inh	D2 potentiator	PINK1 modulator	TRPV1 potentiator
COc1ccc(S(=O)(=O)N2CCC(O)(c3ccc4c(c3)OCO4)CC2)cc1	2.7	-1	7	9%	-2	.	-21
CCN(CC)C(=O)C1=C(C)N(CCC2=CCCCC2)C(=O)C(CC(=O)NCCCN(C)C)C1 (stereo not given)	-6.4	3	2	.	3	-0.3%	.
Cc1ccc(C(=O)N/C(=C/c2cccc([N+](=O)[O-])c2)C(=O)NC(C)C)cc1	-1.4	5	-4	13%	-5	-1.5%	-2
CCOC(=O)c1cn(CC(=O)Nc2ccccc2C(=O)OCC)nn1	-0.1	2	-15	3%	-7	0.7%	4
CC(=O)OCC(=O)[C@@]1(O)CC[C@H]2[C@@H]3CCC4=CC(=O)C=C[C@]4(C)[C@H]3[C@@H](O)C[C@@]21C	-4.7	2	0	21%	-2	3.5%	4
COc1ccc(COc2cccc3ccc(C)nc23)cc1F	-2.6	7	-7	-2%	-11	4.4%	-3
Cc1ccccc1-n1cnnc1SCC(=O)N1CCN(c2ccccc2)CC1	4.0	2	-2	13%	4	-0.3%	9
O=C(NCc1cccs1)C1CCCN(S(=O)(=O)c2cccc3cccnc23)C1 (stereo not given)	-3.5	-1	4	5%	3	2.7%	-7
COc1ccc(C(=O)OCc2c(-c3ccccc3)ncc3ccccc23)cc1	-1.4	-3	0	.	-13	4.3%	.
Cc1ccc(N2CCN(C(=O)c3ccccc3NC(=O)C3CCCCC3C(=O)O)CC2)cc1 (stereo not given)	-0.5	12	11	34%	-46	1.7%	6
ClC1(CNc2ccccc2)CCN(Cc2ccccc2)CC1	-6.4	-28	-13	.	-27	10%	.
Cc1cccc(C(=O)N/N=C/c2ccccn2)c1	-1.8	-29	6	45µM*	-19	1.5%	-14
COc1ccc(C(=O)NCc2nnc(SCC(=O)N3CCCCCC3)o2)cc1OC	-0.5	5	.	17%	-6	3.0%	-5
Cc1ccc(NC(=O)CSc2nnc([C@@H]3CCCN3C(=O)OC(C)(C)C)o2)c(C)c1	-4.4	0	3	-4%	-29	-0.7%	29
Cc1cccc(-n2nnnc2SCC(=O)Nc2ccc(N3CCN(C)CC3)cc2)c1	0.2	-14	-6	4%	-25	0.4%	12
O=C(O)c1ccc(N2C(=O)c3cccc4c(C(=O)O)ccc(c34)C2=O)cc1	2.0	-25	0	-8%	9	-3.6%	0
COc1ccc(N(CC(=O)NC2CCCC2)C(=O)c2ccc(C)s2)cc1OC	-5.6	4	17	-3%	-11	5.5%	-1
Cc1ccc(C)n1-c1nnc(N2CCC(C(=O)N3CCN(C)CC3)CC2)s1	-7.8	2	2	-2%	-1	-0.4%	1
